Biofilm kill mix – mixture kills Candida albicans biofilm cells | C. albicans biofilm persisters + clotrimazole, fluorescence viability; primary screen in compound mixtures of four per well | inhibition, % at 7.6 µM | 120,000 compounds, 0.02% hits | AID 1242;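 active means inhibition above 30.3% in the primary screen of four-compound pools, then above 30% when the compound was retested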;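 further: compounds exposed to preformed 24 h biofilms for 48 h; the number belongs to the whole pool; some results filed as inactive read as strong as hits; inactives centre near 12; 0% = biofilm with clotrimazole alone and 100% = kill control; retested singly at about 60 µM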
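Test system: C. albicans CAF4-2 wild-type biofilms; buffer or medium: RPMI/MOPS medium, pH 7.0; schedule: 24 h biofilm formation, then 48 h compound exposure, 37 °C; detection: Alamar Blue fluorescence; measure: percent inhibition of biofilm viability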
Active calls of the source: *.

SMILES	Biofilm kill mix
CC1CCC2(CC1)NC(=O)N(CC(=O)NCc1cccs1)C2=O (stereo unspecified)	19.1
CCN1CCN(CC(=O)Nc2cc3c(cc2C(C)=O)OCO3)CC1	11.4
CC(=O)Nc1ccc(S(=O)(=O)NCC(=O)OCC(=O)c2cc(C)n(-c3ccc4c(c3)OCO4)c2C)cc1	17.8
Cn1c(N)c(C(=O)c2ccc(C#N)cc2)c(=O)n(C)c1=O	12.4
Cc1cccc(/C=C2\Oc3cc(OS(C)(=O)=O)ccc3C2=O)c1	4.2
COC(=O)C1=C(C)N(C)C(=S)NC1c1ccc(OC)cc1OC (stereo unspecified)	18.7
O=C(NCCc1cn2ccccc2n1)c1cc(COc2c(F)cccc2F)on1	11.8
O=C(Nc1cccc2nsnc12)c1cccnc1Cl	6.5
CCc1ccc(C(C)NC(=O)Cc2ccc(F)cc2)cc1 (stereo unspecified)	9.3
COc1ccc(/C=C/CN2CCN(CC(C)C)C(CCO)C2)cc1 (stereo unspecified)	27.5
O=C(O)CCCC(=O)N1N=C(c2ccccc2)CC1c1cccs1 (stereo unspecified)	5.1
CC1CC(=O)c2c(cc3c(-c4c(O)cc(O)c5c(O)c6c(cc45)OC(C)CC6=O)c(O)cc(O)c3c2O)O1 (stereo unspecified)	9.6
CC1CN(C2CCN(C(=O)COc3ccccc3)CC2)CC(C)O1 (stereo unspecified)	12.6
CC(C)(C)NC(=O)COC(=O)CCC(=O)c1cccs1	3.2
CCCCC(=O)Nc1ccc(NC(=S)NC(=O)CC)cc1OC	8.6
Cc1ccc(-n2c(=O)cc(N3CC(C)OC(C)C3)[nH]c2=O)cc1 (stereo unspecified)	22.3
Cc1ccc(NC(=O)CN(c2ccc(Cl)cc2)S(=O)(=O)c2cc([N+](=O)[O-])ccc2Cl)cc1	18.2
C[C@H](NC(=O)c1[nH]cnc1C(=O)Nc1ccccc1)C(=O)OC(C)(C)C	4.0
COC(=O)Cc1ccc(NC(=S)NNC(=O)C2CC2)cc1	25.5
Cc1ccc(NC(=O)NC(=O)N(C(C)C)S(C)(=O)=O)nc1	-6.0

An excerpt from above in order of formula weight, lowest first:
SMILES	Biofilm kill mix
O=C(Nc1cccc2nsnc12)c1cccnc1Cl	6.5
COC(=O)Cc1ccc(NC(=S)NNC(=O)C2CC2)cc1	25.5
CC1CN(C2CCN(C(=O)COc3ccccc3)CC2)CC(C)O1 (stereo unspecified)	12.6
O=C(NCCc1cn2ccccc2n1)c1cc(COc2c(F)cccc2F)on1	11.8
CC1CC(=O)c2c(cc3c(-c4c(O)cc(O)c5c(O)c6c(cc45)OC(C)CC6=O)c(O)cc(O)c3c2O)O1 (stereo unspecified)	9.6
CC(=O)Nc1ccc(S(=O)(=O)NCC(=O)OCC(=O)c2cc(C)n(-c3ccc4c(c3)OCO4)c2C)cc1	17.8

(list continues)
SMILES	Biofilm kill mix
c1ccc(NCc2ccccn2)cc1	4.3
COc1ccc2c(c1)CC/C(=C\C=C\c1ccccc1OC)C2=O	8.5
COc1cc(OC)cc(C(=O)N[C@H](C(=O)Nc2cc(C)cc(C)c2)C(C)C)c1	11.2
CCSc1nnc(-c2cc(Br)ccc2N)c(=O)[nH]1	8.0
C/C(=N\OCc1ccc(C#N)cc1)c1cc2ccccc2o1	15.4
COc1ccccc1NC(=O)CCN1CCN(C)CC1	25.9
C/C(=N\NC(=O)c1ccco1)c1ccc(NC(=O)c2ccccc2)cc1	5.1
N#C/C(=C\c1ccc(O)c([N+](=O)[O-])c1)c1nc2ccccc2s1	28.7
CSc1nc2nc3c(cc2c(=O)n1-c1ccccc1C)COC(C)(C)C3	4.5
COc1ccc(OC)c(-c2csc(N(CC3CCCO3)C(=O)Cc3ccccc3)n2)c1 (stereo unspecified)	15.8
Cc1ccc(CSC2=NCCN2C(=O)C(C)Oc2ccccc2)cc1 (stereo unspecified)	12.5
CCOC(=O)/C(C#N)=C/Nc1cc(C(=O)OCC)cc2c(OC)c(OC)ccc12	15.0
O=C(Nc1ccc(O)c2c(=O)cc(-c3ccccc3Cl)oc12)c1ccc(Cl)c(Cl)c1	13.3
CCOc1cc(CN2CCCC(CNC(=O)c3ccc(F)cc3)C2)ccc1OC (stereo unspecified)	20.3
CCN(CC)CCC(c1ccc(N(C)C)cc1)c1c(O)cc(OC)cc1OC (stereo unspecified)	13.3
CC(C)c1nc(SCC(=O)N2CC(=O)Nc3ccccc32)c2ccccc2n1	11.8
CSc1ccc(CN2C(=O)NC3(CCCCC3)C2=O)cc1	10.2
CCOC(=O)C1CCN(C(=O)c2cc3c(=O)n4ccccc4nc3n2C)CC1	17.6
COc1ccc([N+](=O)[O-])cc1N(CC(O)CN1CCCCC1)S(=O)(=O)c1ccc(C)cc1 (stereo unspecified)	14.4
Cc1ncc([N+](=O)[O-])n1CCOC(=O)NC(NCc1ccccc1Cl)C(Cl)(Cl)Cl (stereo unspecified)	12.8

Reprinted at random: two entries already listed
SMILES	Biofilm kill mix
CC(C)c1nc(SCC(=O)N2CC(=O)Nc3ccccc32)c2ccccc2n1	11.8
c1ccc(NCc2ccccn2)cc1	4.3

In the list so far, 2 have a tert-butyl group:
SMILES	Biofilm kill mix
CC(C)(C)NC(=O)COC(=O)CCC(=O)c1cccs1	3.2
C[C@H](NC(=O)c1[nH]cnc1C(=O)Nc1ccccc1)C(=O)OC(C)(C)C	4.0

Next entries follow.
SMILES	Biofilm kill mix
CCN1CCCC1CNC(=O)C(=O)NC1CC1 (stereo unspecified)	4.7
O=C(c1cccc(S(=O)(=O)N2CCc3ccccc3C2)c1)N1CCN(c2ccccc2)CC1	21.0
O=C(/C=C/c1ccc(Cl)cc1)N1CCN(c2ccccn2)CC1	15.2
CCOc1ccc(NC(=O)CSc2nc(-c3cccs3)cc(C(F)(F)F)n2)c([N+](=O)[O-])c1	8.9
CN=c1scc(-c2ccc(F)cc2)n1/N=C/c1ccc(O)c(O)c1	8.0
Cn1cnnc1SCC(=O)c1cccc([N+](=O)[O-])c1	5.9
COc1ccc(S(=O)(=O)CC(=O)Nc2ccccc2Cl)cc1	17.1
O=C(Nc1cccnc1)c1ccc2c(c1)C(=O)N(CC1CCCO1)C2=O (stereo unspecified)	12.3
Cc1cccc(C(=O)N[C@H](C(=O)OCC(=O)NC2CCS(=O)(=O)C2)C(C)C)c1 (stereo partly specified)	14.9
COc1ccc(C2NC(=S)NC(C)=C2C(=O)c2ccccc2)cc1OC (stereo unspecified)	1.6
CCN(CC)Cc1c(NC(=O)c2ccccc2)sc(C)c1C	15.1
Cc1cc(C)c(OCC(=O)OCCNC(=O)c2cccnc2)c(C)c1	16.8
CC(=O)c1cnc2c(-c3ccccc3)c(C)nn2c1C	14.2
O=C(O)C1CCN(C(=O)c2csc(-c3ccc4c(c3)CCO4)n2)CC1	33.1
CC(C)(C)Cc1nnc(NC(=O)Cc2ccc([N+](=O)[O-])cc2)s1	4.0
Cc1ccn(CCC(=O)O)n1	9.7
CCNC(=O)CSc1nnc(CN2CCCCCC2=O)n1-c1ccccn1	8.9
O=c1nc(SCc2c(F)cccc2Cl)nc(-c2ccccc2)[nH]1	22.0
CCN(CC)S(=O)(=O)c1ccc(N2CCOCC2)c(NC(=O)c2cc([N+](=O)[O-])ccc2Cl)c1	7.9
CC(C)C[C@H](NC(=O)Nc1cccc(Br)c1)C(=O)O	13.7
CC(C)NC(=O)N(Cc1ccccc1)Cc1cccs1	16.8
O=C(Nc1cccc(Cl)c1)Nc1csc([N+](=O)[O-])c1	19.4
Cc1ccc(S(=O)(=O)Nc2ccc3c(c2)nc(C)n3C)cc1	24.2
O=C(/C=C/c1cccc(O)c1)c1cccnc1	15.9
CC(C)(CNC(=O)c1ccc(S(=O)(=O)N2CCCC2)cc1)N1CCOCC1	7.6
C=CCOC(=O)C(C#N)c1nc2ccccc2nc1N1CCN(c2ccccc2OCC)CC1 (stereo unspecified)	13.5
O=C(Nc1ccccn1)c1ccc2c(c1)OCO2	5.5
CN1C(N)=NC(=O)/C1=C/c1ccc(F)cc1	5.1
COC(=O)c1oc2c(c1C)C(=O)CCC2	28.8
Cc1ccc(-n2ncc3c(NNC(=O)c4cccs4)ncnc32)cc1	7.6
Cc1ccc(C)c(NC(=O)c2ccccc2NC(=O)C2CCCO2)c1 (stereo unspecified)	8.9
Fc1ccccc1NC(=S)Nc1ccc(CN2CCOCC2)cc1	17.0
CCCn1c(SCC(=O)N2CCCC(C)C2)nnc1-c1ccccn1 (stereo unspecified)	0.4
COc1cccc(NC(=O)Nc2cc(NC(=O)Nc3cccc(OC)c3)c(C)nc2C)c1	13.3
Cc1ccccc1Nc1nnc(SCC(=O)c2cc3ccccc3o2)s1	-6.7
COc1ccc(OC)c(-c2csc(NC(=O)C3c4ccccc4Oc4ccccc43)n2)c1	10.6
c1cnc2ncc3sccc3c2c1	4.5
COc1cc(-c2[nH]ncc2CN(C)Cc2cc(C)[nH]n2)cc(OC)c1OC	24.5
CC(C)CN1CCN(CC#Cc2ccccc2)CC1CCO (stereo unspecified)	23.3
COc1ccc(Nc2cc(C)nc(NCc3ccccc3)n2)cc1	20.5
CCSC1=N/C(=C/c2ccsc2)C(=O)N1c1ccccc1	7.3
Cc1ccc(CNCC(O)(c2ccccc2)c2ccc(Cl)cc2)cc1 (stereo unspecified)	-1.6
CC(C)C(=O)N1CCN(c2ccc(NC(=O)c3cccs3)cc2Cl)CC1	32.9
C=CCNC(=O)c1ccc([N+](=O)[O-])c(Cl)c1	-18.6
N#CC1=C(N)OC2=C(CC/C2=C\c2ccccc2Cl)C1c1ccccc1Cl (stereo unspecified)	19.6
CCC(=O)N1c2ccccc2-c2nnc(SC)nc2OC1c1ccc(N(C)C)cc1 (stereo unspecified)	5.0
CCCCCC(=O)NC(NC(=S)NC1CCS(=O)(=O)C1)C(Cl)(Cl)Cl (stereo unspecified)	10.9
Cc1cc(C)cc(-n2c(C)nc3cc(C(=O)O)ccc32)c1	11.4
O=c1c2ccccc2c(C=Nc2cccc(S(=O)(=O)NCc3ccco3)c2)c(O)n1-c1ccc(Cl)cn1	18.2
Cc1cc(NC(=O)CCCn2nc(C)c([N+](=O)[O-])c2C)no1	4.7
O=C1c2cccc3c([N+](=O)[O-])c(O)cc(c23)C(=O)N1Nc1ccccc1	14.4
Cc1ccc(S(=O)(=O)N2CCCOC2CNC(=O)C(=O)NCCCn2ccnc2)cc1 (stereo unspecified)	14.7
COc1cc(/C=C(\C#N)C(=O)c2c(C)[nH]c3ccccc23)cc(OC)c1OC	13.2
O=C(/C=C/c1ccc2c(c1)OCCCO2)c1ccccc1O	17.5
Cc1ccc(-c2nnc(SCC(=O)N/N=C/c3c(C)nn(-c4ccccc4)c3C)n2-c2ccccc2)cc1	45.9
O=C(Oc1coc(CSc2nnc(NC(=O)C3CC3)s2)cc1=O)c1ccccc1	13.5
C=CC[n+]1c(/C=C2\C=Cc3cc(C)ccc3N2CC)ccc2ccccc21	26.0
Cc1ccc(NC(=O)c2cnc3ccccc3n2)cc1C	13.4
COc1cc2cc(Oc3ccc4ccc(=O)oc4c3)c(=O)oc2cc1O	5.0
CC(C)(C)c1ccc(-c2nnc(N)o2)cc1	23.6

The listing continues:
SMILES	Biofilm kill mix
COc1cccc(OC)c1C(=O)Nc1nc2cc3c(cc2s1)OCO3	10.8
CC(=O)c1ccc(OCC(O)CN2CCN(Cc3ccc4c(c3)OCO4)CC2)cc1 (stereo unspecified)	31.9
O=S(=O)(c1ccc(-c2csc(Nc3ccc(F)cc3)n2)cc1)N1CCCC1	12.9
COc1ccc(CS(=O)(=O)CC2(O)CCN(C(=O)c3cccc(C(F)(F)F)c3)CC2)cc1	15.5
N#C/C(=N\Nc1cccc([N+](=O)[O-])c1)C(=O)c1ccc(Br)cc1	14.8
C/C(CC(=O)N(C(C)C)C(C)C)=N\NC(=O)c1ccccc1Br	6.7
CCC(C)NS(=O)(=O)c1ccc(OCC(=O)N2CCCC2)cc1 (stereo unspecified)	8.0
COc1ccccc1CNC(=O)C(NS(=O)(=O)c1ccc2c(c1)OCCO2)C(C)C (stereo unspecified)	18.8
COc1ccc(OC)c(N2C(=O)CC(Cc3cc(C)cc(C)c3)C2=O)c1 (stereo unspecified)	9.1
O=C1Nc2ccccc2S/C1=C\C(=O)N1CCCC1	8.2
COc1ccc(C)cc1NC(=O)c1ccc(NS(=O)(=O)c2cccc3cccnc23)cc1	22.5
CC(C)c1ccc(C(=O)NC(=S)Nc2ccc3[nH]c(=O)[nH]c3c2)cc1	13.0
Cn1c2ccccc2c(=O)c2c(=O)n(C3CCCCC3)c(-c3ccco3)nc21	9.2
O=C(CSc1ccc(-c2ccco2)nn1)N1CCCC1	21.7
O=S(=O)([N-]c1nc2ccccc2nc1-[n+]1ccccc1)c1ccccc1	14.6
COc1cccc(C(=O)NCCOc2cc(C)cc(C)c2)c1	4.4
CC(=O)C1=C(O)C(=O)N(c2nccs2)C1c1ccccc1F (stereo unspecified)	11.5
CC(=S)c1c(C)cc2cc(C)ccn12	8.6
CCc1c(O)nc(SCc2nc3ccccc3c(=O)[nH]2)[nH]c1=O	7.8
CCN1CCc2c(OCC(=O)N3CCCCC3)cccc2C1=O	15.7
COC(=O)c1c(C)oc(C)c1S(=O)(=O)N1CCCCC1	19.2
Cc1ccc(S(=O)(=O)NC(=O)c2ccc(-c3ccc(-c4ccccc4)cc3)o2)c(C)c1	11.1
Oc1cccc(C2c3[nH]c4ccccc4c3CCN2Cc2cnn(-c3ccccc3)c2)c1 (stereo unspecified)	25.2
COc1cccc(CNC(=O)CCl)c1	10.2
Cc1ccccc1OCC(=O)N1N=C(C(F)(F)F)CC1(O)C(C)(C)C (stereo unspecified)	-3.1
O=C1Nc2ccccc2Oc2cc([N+](=O)[O-])ccc21	11.1
CCOc1cc(NC(=S)NCC2CCCO2)c(OCC)cc1NC(=O)CC (stereo unspecified)	23.1
CCCn1c(=NC(=O)c2c(-c3c(F)cccc3Cl)noc2C)c(C(=O)OCC)cc2c(=O)n3ccccc3nc21	14.1
O=C(CCn1cnc2ccccc2c1=O)Nc1nc(-c2ccc(Br)cc2)cs1	2.2
CCOc1ccc(/C=C2\CCc3ccccc3C2=O)cc1	15.4
Cc1cccc(Oc2c([N+](=O)[O-])c(=O)n(C)c3ccccc23)c1	26.4

The list is partial; the hit share may differ from the screen's.
